Screening results deposited in PubChem BioAssay by several laboratories.
YopH inh = YopH (Yersinia) phosphatase inhibition; inhibition, %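 (about 10 µM by stock and volumes)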; 140,000 tested, 0.16% active; fluorescence Ex485/Em525;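 active = inhibition of 50% or more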;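 note: controls were vehicle for no effect and minimum signal wells for full effect; inactives centre near -20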
Mtb growth = M. tuberculosis H37Rv growth inhibitors, H37Rv strain (AID 1626) | 220,000 tested, 0.95% active | inhibition, % at 10 µM; hits with a dose series show IC50 in µM | M. tuberculosis H37Rv growth inhibition; higher % means a stronger effect;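 active = confirmed in a dose series; inconclusive = inhibition above 80% but not taken into the dose series; inactive = below 80% or under 30% at every dose of the series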;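 note: bacteria incubated seven days before Alamar blue readout; 0% = bacteria only wells and 100% = bacteria with antibiotic wells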
Arbovirus anti = arbovirus infection inhibition | arbovirus infection cell-based antiviral screen | inhibition, % at 10 µM | 200,000 tested, 0.37% active;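 active = inhibition from about 30%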;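 note: bluetongue infection of BSR cells; cell survival read as ATP light after 72 h; 0% = infected wells without compound and 100% = uninfected wells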
Mtb bLac sens = beta-lactam sensitization of Mtb H37Rv | M. tuberculosis H37Rv growth with meropenem, percent inhibition; hits of this screen are not shown here | inhibition, % at 25 µM | 330,000 tested, 0.27% active | AID 434955;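 active = about 74% or more and at least 40 points above the plate without the antibiotic, then above 30% in a dose series; inconclusive = first-round hits that could not be retested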;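 note: growth measured after seven days incubation then overnight dye step; 0% = bacteria only wells and 100% = bacteria with antibiotic; twin plates without the antibiotic show which effects depend on it; some results filed as inactive read as strong as hits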
RecA intein inh = blocks M. tuberculosis RecA intein splicing; P9WHJ3; cell-free RecA intein splicing, fluorescence; inhibition, %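 (about 9 µM by stock and volumes)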; 290,000 tested, 0.75% active; AID 2221; in the data active = inhibition above about 30%; inconclusive = no clear call, values can overlap the other calls;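 note: 0% = vehicle wells and 100% = reference inhibitor control wells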
Target sequence (P9WHJ3 whole entry, looked up): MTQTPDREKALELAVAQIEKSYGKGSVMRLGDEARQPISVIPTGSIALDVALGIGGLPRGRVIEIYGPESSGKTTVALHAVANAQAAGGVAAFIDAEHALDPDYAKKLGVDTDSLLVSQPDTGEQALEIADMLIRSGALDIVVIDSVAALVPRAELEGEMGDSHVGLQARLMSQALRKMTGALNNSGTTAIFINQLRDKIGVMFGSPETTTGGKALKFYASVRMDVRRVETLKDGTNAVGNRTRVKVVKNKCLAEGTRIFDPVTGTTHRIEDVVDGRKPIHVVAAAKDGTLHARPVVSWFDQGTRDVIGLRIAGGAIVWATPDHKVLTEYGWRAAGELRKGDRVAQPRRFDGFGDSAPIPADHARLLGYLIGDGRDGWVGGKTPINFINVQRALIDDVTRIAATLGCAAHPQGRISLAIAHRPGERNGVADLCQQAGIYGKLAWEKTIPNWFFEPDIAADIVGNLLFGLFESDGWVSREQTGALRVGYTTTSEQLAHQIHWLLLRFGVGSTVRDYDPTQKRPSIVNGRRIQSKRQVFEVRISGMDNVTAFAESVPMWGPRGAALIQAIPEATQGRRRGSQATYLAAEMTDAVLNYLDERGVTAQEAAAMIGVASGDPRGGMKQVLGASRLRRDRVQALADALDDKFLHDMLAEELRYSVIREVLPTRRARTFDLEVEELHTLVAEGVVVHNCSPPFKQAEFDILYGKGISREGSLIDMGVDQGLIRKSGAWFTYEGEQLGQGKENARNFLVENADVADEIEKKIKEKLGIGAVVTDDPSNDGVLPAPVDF
Numbers without * were called inactive; ? = inconclusive; nt = no result given. Only part of the results is shown; rates above refer to the full screens.

SMILES	Mtb growth	RecA intein inh	Mtb bLac sens	Arbovirus anti	YopH inh
COc1cc2cc(C(c3nnnn3C3CCCC3)N3CCc4ccccc43)c(=O)[nH]c2cc1OC (stereo not given)	nt	nt	8	-10	-47
Cc1cc(C(=O)COC(=O)C(C)NC(N)=O)c(C)n1Cc1ccco1 (stereo not given)	1%	-1.8	-3	2	nt
CCC(Sc1nc2c(c(=O)n1CC)SC(C)C2)C(=O)OC (stereo not given)	8%	0.5	-4	1	-35
Cc1ccc(NC(=S)N2CCC(c3nc4ccccc4s3)CC2)cc1C	5%	-3.8	1	11	-41
COC(=O)N/N=C/c1cc(C)n(-c2ccc(Br)cc2)c1C	1%	3.7	55	nt	nt
N#Cc1ccc2ccn(CC(=O)NC3CCCCCC3)c2c1	-7%	nt	12	8	-46
O=C(CCc1nnc2n(Cc3ccc(F)cc3)c(=O)c3ccccc3n12)N1CCN(c2ccccn2)CC1	nt	-1.5	9	nt	nt
CC(C)(C)NC(=O)NC(=O)COC(=O)c1ccco1	0%	0.0	-17	0	-3
O=C(Cn1cc([N+](=O)[O-])cn1)NCCc1c[nH]c2ccccc12	0%	2.0	1	19	nt
Nc1ccc(C(=O)OCc2ccncc2)cc1[N+](=O)[O-]	0%	-0.7	6	20	nt
Cc1cccc(CN2C(=O)N/C(=C/c3cc(C)n(-c4ccccn4)c3C)C2=O)c1	9%	1.6	3	-9	5
CCOc1nsc(OCC)n1	-12%	0.6	3	nt	nt
CCOC(=O)c1ccc(NC(=S)N2CCCC(C(=O)N3CCCC3)C2)cc1 (stereo not given)	nt	18	6	nt	nt
N#Cc1c(-c2ccccc2)ccn(Cc2ccccc2Cl)c1=O	nt	7.7	-4	4	-2
Cc1ccn2c(C(=O)c3ccc(Cl)cc3)cnc2c1	0%	-0.3	5	-6	-18
Cc1cc(NC(=O)c2cc(-c3ccco3)on2)no1	3%	-0.6	nt	0	-35
Cc1cccc(OCc2nnc(NC(=O)Cc3cccs3)s2)c1	0%	-0.7	-9	-9	-68
COc1ccc(NC(=O)CSc2nnc(-c3cccc(O)c3)o2)cc1	nt	-0.3	-7	nt	nt
Cc1cc2n(n1)C(c1ccccc1Cl)Nc1ccccc1-2 (stereo not given)	-3%	0.5	-6	-7	-42
Cc1cccc(NCC(=O)N/N=C/c2ccc(Br)cc2)c1	2%	-3.3	2	-11	nt
COc1cccc(NC(=S)N(CCc2c(C)[nH]c3ccccc23)Cc2cccs2)c1	nt	nt	-8	-1	-11
COC(=O)c1ccc(=O)n(Cc2ccco2)c1	nt	-3.3	-3	-1	-36
CC1=Nc2cccc3cccc(c23)N1	3%	7.0	-9	-20	-9
CC(C)C(=O)Nc1cccc(-c2nc3ncccc3o2)c1	nt	-1.9	1	nt	nt
O=C(CN1C(=O)C(=O)c2ccccc21)c1ccccc1	nt	-0.8	1	nt	nt
COc1cccc(-n2nnc3c(=O)n(CC(=O)OCc4ccccc4)cnc32)c1	-1%	-1.1	1	9	-33
CN(C)C(CNC(=O)Cc1cccc(C(F)(F)F)c1)c1ccco1 (stereo not given)	1%	-0.4	2	13	nt
Cc1ccc(OCCn2c(Br)nc3c2c(=O)n(C)c(=O)n3C)cc1	-3%	-0.1	4	13	-12
CCOc1ccc(C2CC(c3cccc(C)c3)n3ncnc3N2)cc1 (stereo not given)	62%	-1.3	2	0	-13
Cc1ccc(-c2cc(C(=O)Nc3ccc(S(=O)(=O)Nc4nccs4)cc3)c3ccccc3n2)c(C)c1	70%	15	92	-3	-4

A second format for 4 compounds above:
> CC(C)(C)NC(=O)NC(=O)COC(=O)c1ccco1
  Mtb growth = 0%
  RecA intein inh = 0.0
  Mtb bLac sens = -17
  Arbovirus anti = 0
  YopH inh = -3
> O=C(Cn1cc([N+](=O)[O-])cn1)NCCc1c[nH]c2ccccc12
  Mtb growth = 0%
  RecA intein inh = 2.0
  Mtb bLac sens = 1
  Arbovirus anti = 19
  YopH inh = nt
> Nc1ccc(C(=O)OCc2ccncc2)cc1[N+](=O)[O-]
  Mtb growth = 0%
  RecA intein inh = -0.7
  Mtb bLac sens = 6
  Arbovirus anti = 20
  YopH inh = nt
> Cc1cccc(CN2C(=O)N/C(=C/c3cc(C)n(-c4ccccn4)c3C)C2=O)c1
  Mtb growth = 9%
  RecA intein inh = 1.6
  Mtb bLac sens = 3
  Arbovirus anti = -9
  YopH inh = 5

Further structures follow:
SMILES	Mtb growth	RecA intein inh	Mtb bLac sens	Arbovirus anti	YopH inh
CCN(C(=O)COC(=O)c1nc(Cl)ccc1Cl)C1CCS(=O)(=O)C1 (stereo not given)	nt	-0.2	-5	nt	nt
C=CCOc1ccc(CN(C)CC(=O)Nc2ccc3c(c2)CCC3)cc1	73%	4.4	78	19	nt
O=C(Nc1ccc(N2CCCCC2)cc1)c1cc(S(=O)(=O)N2CCOCC2)ccc1F	nt	2.9	-4	nt	nt
CC(C)CCN1CCN(Cc2cccc(-n3cccn3)c2)CC1CCO (stereo not given)	-3%	0.0	-5	-19	nt
Nc1scc2c(C(=O)N/N=C/c3ccc(Cl)cc3)nn(-c3ccccc3)c(=O)c12	11%	63*	5	-13	-9
CN1CCN(c2nc(-c3ccc(Cl)cc3Cl)nc3ccccc23)CC1	nt	2.4	2	nt	nt
CS(=O)(=O)N(CC(=O)NC1CC2CCC1C2)c1cccc(C(F)(F)F)c1 (stereo not given)	-5%	-1.9	3	4	17
Cc1ccc(C)c(NC(=O)CSc2nnc(-c3ccncc3)o2)c1	1%	-165	-3	nt	nt
CCC1(C)NC(C(=O)O)Cc2c1[nH]c1ccccc21 (stereo not given)	nt	0.1	-9	nt	nt
CN(CC(=O)Nc1ccccc1Br)C(=O)c1ccccc1-c1nc2ccccc2s1	nt	-1.2	-8	nt	nt
COc1ccc(N/C(=C/[N+](=O)[O-])SC)cc1	nt	11	46	-22	nt
CCOCCCN(C(=O)CNC(=O)c1ccco1)C(C(=O)NC1CCCC1)c1ccccc1C (stereo not given)	-3%	-0.8	-6	2	-16
CC(C)Cn1c2c(c(=O)[nH]c1=O)C(NS(=O)(=O)c1ccc(Cl)cc1)(C(F)(F)F)C(=O)N2 (stereo not given)	2%	1.7	-3	nt	nt
CCOc1ccc(NCc2cc3c(C(C)(C)C)nn(-c4ccccc4)c3[nH]c2=O)cc1	?	0.6	97	-11	-25
O=C(CCc1ccccc1)NCCC1=CCCCC1	-4%	-1.9	10	1	-7
Cc1ccc(NC(=O)NNC(=O)C2CC(c3cccs3)=NO2)cc1 (stereo not given)	nt	0.2	-6	nt	nt
CCOC(=O)Nc1cccc(OCC(=O)Nc2ccccc2OC)c1	-13%	-4.4	96	-3	-32
COc1cc(/C=C/C(=O)Nc2ccc3[nH]c(=O)[nH]c3c2)cc(OC)c1OC	-4%	2.3	-1	4	nt
CCCCc1nnc(NC(=O)C2CC(=O)N(c3ccc(C)cc3)C2)s1 (stereo not given)	-1%	0.3	13	7	nt
N=c1oc2ccccc2cc1C(=O)N/N=C/c1ccccc1	nt	0.7	-9	-5	-42
CCC(C)SCc1nc2ccccc2[nH]1 (stereo not given)	-2%	1.9	3	-1	-24
O=C(NC(=S)N1CCN(Cc2ccccc2)CC1)c1ccco1	?	-1.0	82	-1	nt
CN(C)S(=O)(=O)c1ccc(Oc2ccc(S(=O)(=O)N(C)C)cc2)cc1	4%	nt	2	4	30
COc1ccc(/C=C2/SC(=O)N(CCC(=O)Nc3ccc(S(=O)(=O)Nc4nccs4)cc3)C2=O)cc1	1%	-8.2	-7	0	-36
Cc1c(Cc2ccccc2)c(=O)oc2cc(OCC(N)=O)ccc12	36%	0.5	10	6	nt
CN(Cc1c(F)cccc1Cl)C(=O)CNC(=O)c1sc2ccccc2c1Cl	nt	-2.2	-7	nt	nt
NS(=O)(=O)c1ccc(CCNC(=O)CSc2nc3ccccc3c(=O)n2CC2CCCO2)cc1 (stereo not given)	nt	-3.2	5	nt	nt
CCN(CC)c1ccc(C=C2C(=O)N(C)C(=S)N(C)C2=O)o1	9%	-0.6	4	7	-38
CCCCn1c(N)c(C(=O)OCCOC)c2nc3ccccc3nc21	0%	-232	-2	nt	nt
O=C(NC1CCN(Cc2ccc(F)cc2)CC1)c1ccccc1	nt	13	4	nt	nt

Four entries from above, as labelled records.
Cc1c(Cc2ccccc2)c(=O)oc2cc(OCC(N)=O)ccc12
  Mtb growth: 36% | RecA intein inh: 0.5 | Mtb bLac sens: 10 | Arbovirus anti: 6 | YopH inh: nt

CN1CCN(c2nc(-c3ccc(Cl)cc3Cl)nc3ccccc23)CC1
  Mtb growth: nt | RecA intein inh: 2.4 | Mtb bLac sens: 2 | Arbovirus anti: nt | YopH inh: nt

O=C(NC1CCN(Cc2ccc(F)cc2)CC1)c1ccccc1
  Mtb growth: nt | RecA intein inh: 13 | Mtb bLac sens: 4 | Arbovirus anti: nt | YopH inh: nt

COc1cc(/C=C/C(=O)Nc2ccc3[nH]c(=O)[nH]c3c2)cc(OC)c1OC
  Mtb growth: -4% | RecA intein inh: 2.3 | Mtb bLac sens: -1 | Arbovirus anti: 4 | YopH inh: nt

Returning to the listing, repeating the two entries before the break.
SMILES	Mtb growth	RecA intein inh	Mtb bLac sens	Arbovirus anti	YopH inh
CCCCn1c(N)c(C(=O)OCCOC)c2nc3ccccc3nc21	0%	-232	-2	nt	nt
O=C(NC1CCN(Cc2ccc(F)cc2)CC1)c1ccccc1	nt	13	4	nt	nt
Cc1sc(NC(=O)/C=C/c2ccco2)c(C(=O)O)c1C	-2%	2.3	5	nt	nt
CCn1nc(C)c(CN2CCCC(CO)(Cc3ccccc3)C2)c1C (stereo not given)	3%	-2.8	-7	-2	nt
Cc1ccccc1C(=O)NNC(=O)CSc1nnc(-c2ccncc2)n1-c1ccccc1	3%	-0.9	-6	-2	-12
CCCN(C(=O)C1CCCN(c2ncnc3c2nc2n3CCCCC2)C1)c1ccc(F)cc1 (stereo not given)	nt	0.5	2	nt	nt
COc1ccc(S(=O)(=O)NCc2ccccn2)cc1NC(=O)c1ccccc1C	nt	-0.3	-9	nt	nt
CCOC(=O)N1CCN(C(=O)CS(=O)(=O)Cc2nc(-c3ccccc3F)oc2C)CC1	nt	-2.2	-7	nt	nt
COc1ccccc1C(=O)NCCC(=O)NC1CCCC(C)C1C (stereo not given)	nt	-5.0	-5	nt	nt
COc1ccc(-n2nc3c(N4CCC(C(=O)N5CCC(C)CC5)CC4)nnc(C)c3c2C)cc1	nt	0.3	14	nt	nt
CCN1CCN(c2ccc(S(=O)(=O)N3CCOCC3)cc2NC(=O)/C=C/c2ccc(C)cc2)CC1	nt	-2.4	-3	nt	nt
Cc1nc(SCc2ccc(C(=O)O)cc2)nc2c1CCCC2	-5%	-1.4	-11	-1	nt
CCOc1ccc(N=Nc2cc(C(C)C)ccc2O)cc1	17%	-1.6	9	12	0
O=C(COc1ccc2c3c(c(=O)oc2c1)CCC3)N1CCCC1	nt	2.5	-14	nt	nt
COc1cc(OC)cc(C(=O)NC(C)CNc2ccc(Cl)cc2[N+](=O)[O-])c1 (stereo not given)	nt	1.0	2	nt	nt
Cc1ccccc1Cn1c(C(C)O)nc2ccccc21 (stereo not given)	1%	0.0	-9	6	-28
Cc1ccc(CC2CC(=O)N(c3ccc(Cl)cn3)C2=O)cc1 (stereo not given)	-5%	-1.1	-6	3	-90
